HNF4A DNA FP = change in binding of human HNF4 alpha to DNA | P41235 | HNF4a-FITC DNA binding, fluorescence polarization, 1 h | activity change, % at 10 µM | actives 0.3% (n = 360,000) | AID 1224865; in the data active = activity change above about 30%, passing the limit was not always enough;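 note: controls were the assay level and a saturating level of protein; the project sought stronger binding though the title names inhibitors; some compounds called inactive have numbers as strong as hits; positive values seem to mean higher polarization but the record does not say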
Target sequence (P41235 whole entry, looked up): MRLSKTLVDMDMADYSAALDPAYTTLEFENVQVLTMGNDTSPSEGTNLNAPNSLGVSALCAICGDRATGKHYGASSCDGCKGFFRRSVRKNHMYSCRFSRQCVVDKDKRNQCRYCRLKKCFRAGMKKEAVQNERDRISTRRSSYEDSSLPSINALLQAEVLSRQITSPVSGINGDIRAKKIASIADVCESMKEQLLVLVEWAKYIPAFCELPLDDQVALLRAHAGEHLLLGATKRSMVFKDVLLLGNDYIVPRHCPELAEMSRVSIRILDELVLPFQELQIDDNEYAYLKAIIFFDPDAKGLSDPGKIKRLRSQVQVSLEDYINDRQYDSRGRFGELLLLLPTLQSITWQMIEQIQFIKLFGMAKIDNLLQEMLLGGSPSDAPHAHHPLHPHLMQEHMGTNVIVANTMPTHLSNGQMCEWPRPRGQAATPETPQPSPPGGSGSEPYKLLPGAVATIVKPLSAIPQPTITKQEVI
ALR inh = human ALR oxidase inhibition via reduced H2O2. P55789. purified ALR, DTT oxidation, H2O2 HRP-luminol luminescence. inhibition, % (no concentration beside the values). actives 3.8% (n = 290,000);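 active = mean and each replicate at 75% or more; inconclusive = only one of the two met; inactive = neither met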;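 note: stock transfer was 7.5 nL into about 7.5 µL; 0% = neutral wells and 100% = wells with inactivated enzyme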
E coli growth = blocks Escherichia coli growth | AID 1053175 | OD600 absorbance (no concentration beside the values) | OD600, 23 h; hits give low values | actives 0.21% (n = 330,000);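 active = OD600 absorbance below the run mean of sample wells minus 3.6 SD, in any replicate, cut at about 0.56 in these data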;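 note: stock transfer was 300 nL into about 60 µL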
Vif TR-FRET = HIV-1 Vif–A3G interaction blockers – biochemical, TR-FRET, GST-Vif 1-94, biotin-A3G peptide, dose response retest, primary screen (AID 1117319); TR-FRET GST-Vif / biotin-A3G peptide binding; higher % means a stronger effect; test concentration not given here; strong numbers were not always called active; inhibition, %; hits with a dose series show IC50 in µM; actives 0.57% (n = 260,000);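 active = above the screen mean plus three standard deviations and confirmed in dose response; inconclusive = results disagree or hit not tested in dose response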;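 note: Vif residues 1-94 fused to GST binding biotinylated APOBEC3G peptide 110-148; 0% = full assay without inhibitor and 100% = GST in place of GST-Vif; retest series ran down from 100 µM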
AF4-AF9 inh = blocks AF4 peptide binding to human AF9; P42568; inhibition, % at 10 µM; actives 0.47% (n = 350,000); AlphaScreen, biotin-AF4 peptide binding to FLAG-AF9; AID 651704;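 active = every replicate reaching a set inhibition limit, whatever the replicate mean, cut at about 25% in these data; inconclusive = mean inhibition reaches that limit but some replicates miss it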;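 note: 0% = plate neutral control median and 100% = total signal loss; the record names both 10 and 1 µM as test concentration; the first replicate is given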
Target sequence (P42568 whole entry, looked up): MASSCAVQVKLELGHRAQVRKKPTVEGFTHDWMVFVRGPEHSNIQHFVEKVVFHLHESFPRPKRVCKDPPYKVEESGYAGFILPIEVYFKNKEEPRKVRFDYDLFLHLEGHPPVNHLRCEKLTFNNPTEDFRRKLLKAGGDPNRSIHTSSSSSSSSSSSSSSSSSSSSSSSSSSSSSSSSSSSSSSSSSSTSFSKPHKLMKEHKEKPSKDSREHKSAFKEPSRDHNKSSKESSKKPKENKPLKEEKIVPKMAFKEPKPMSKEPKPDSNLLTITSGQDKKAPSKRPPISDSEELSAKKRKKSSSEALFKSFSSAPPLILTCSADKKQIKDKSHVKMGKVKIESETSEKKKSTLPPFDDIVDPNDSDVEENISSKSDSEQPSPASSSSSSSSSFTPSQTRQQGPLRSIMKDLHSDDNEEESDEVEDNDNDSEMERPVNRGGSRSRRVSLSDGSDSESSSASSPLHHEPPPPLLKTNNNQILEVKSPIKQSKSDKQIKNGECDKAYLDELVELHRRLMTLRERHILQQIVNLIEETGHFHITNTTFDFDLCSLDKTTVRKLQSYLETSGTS
FGF22 binding = binders of recombinant human FGF22 by thermal shift; SYPRO orange fluorescence; percent of sucrose octasulfate shift, DMSO zero; Q9HCT0; calls only at 9.99 µM; actives 1.5% (n = 340,000);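 active = melting point raised past a set limit in the mean and every replicate; inconclusive = no clear call; three in four hits are not shown here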
rRNA inh HTS = selective bacterial rRNA inhibition in E. coli. AID 720706. E. coli WT GFP vs humanized-ribosome RFP mutants, fluorescence, 24 h; hits give low values; DMSO median 0, no signal -100. actives 1.6% (n = 350,000). GFP signal change (wild-type ribosome), % (test concentration not listed);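 active = significant combined selectivity score with lowered wild-type GFP, culture density cut under 30%, mutant RFP and density less affected; inactive = any of these conditions unmet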; note: one replicate is shown; some compounds called inactive have numbers as strong as hits
rRNA inh HTS OD600 = recorded beside rRNA inh HTS, whose call it bears; OD600 change, %; measured here: OD600 growth;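 optical density of the mix in the first replicate; 0 = DMSO median and -100 = no signal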
rRNA inh HTS RFP = second read-out of rRNA inh HTS, no call of its own (marks repeat the call); RFP signal change, %; measured here: RFP humanized mutant strains;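 first replicate; 0 = DMSO median and -100 = no signal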
* = called active by the depositor; i = inactive; u = inconclusive; x = no result given; & = joins results of further samples.

SMILES | HNF4A DNA FP | ALR inh | E coli growth | Vif TR-FRET | AF4-AF9 inh | FGF22 binding | rRNA inh HTS | rRNA inh HTS OD600 | rRNA inh HTS RFP
CCN=C1SC(CC(=O)NC2CCCCC2)C(=O)N1CC (stereo not drawn) | -2.9 | 0 | 0.71 | 1% | x | x | 11 | 15 | -1.4
CC(C)CC(=O)N1CCN(c2ccc([N+](=O)[O-])c(NCc3ccccc3)c2)CC1 | 1.8 | 0 | 0.8 | x | x | x | x | x | x
C[C@H](NC(=O)Nc1ccc2c(c1)OCCO2)C(=O)O | -1.3 | -11 | 0.64 | 2% | x | x | x | x | x
COc1ccc(-c2ccc(C(=O)Nc3ccc(Cl)cc3)c3occc23)c(C)c1 | -1.4 | x | x | x | -6.2 | i | 25 | 16 | -5.3
CNC(=O)NC(=O)COC(=O)c1cccc(S(=O)(=O)N2CC3(C)CC2CC(C)(C)C3)c1 (stereo not drawn) | -3.1 | 1 | 0.69 | 2% | 0.6 | i | 0 | -4 | -1.1
COCC(=O)N1[C@@H](CO)[C@@H]2c3ccccc3N(C(=O)c3ccccc3)C[C@@H]21 | x | x | x | x | -0.9 | i | 2 | 11 | -4.5
COc1ccc(CCC(=O)Nc2ccc(Br)cn2)cc1 | -3.0 | -9 | 0.69 | 21% | x | x | x | x | x
C[C@H]1CN([C@@H](C)CO)S(=O)(=O)c2ccc(-c3ccncc3)cc2O[C@@H]1CN(C)Cc1cccnc1 | x | x | x | x | -4.3 | i | -10 | -9 | 3.4
O=C(CSc1nnc(-c2cccnc2)n1Cc1ccco1)N1c2ccccc2Sc2ccccc21 | 3.4 | u | 0.74 | 8% | x | x | x | x | x
Cc1noc(C)c1S(=O)(=O)N(C)C[C@@H]1Oc2ccc(NC(=O)C3CCCCC3)cc2CC(=O)N([C@@H](C)CO)C[C@H]1C | x | x | x | x | 2.0 | i | -2 | -6 | 1.8

Just HNF4A DNA FP, for some of the entries so far:
smiles	HNF4A DNA FP
CC(C)CC(=O)N1CCN(c2ccc([N+](=O)[O-])c(NCc3ccccc3)c2)CC1	1.8
C[C@H](NC(=O)Nc1ccc2c(c1)OCCO2)C(=O)O	-1.3

The listing continues.
SMILES | HNF4A DNA FP | ALR inh | E coli growth | Vif TR-FRET | AF4-AF9 inh | FGF22 binding | rRNA inh HTS | rRNA inh HTS OD600 | rRNA inh HTS RFP
CCCN(C)C[C@H]1OCCCC[C@H](C)Oc2ccc(NS(=O)(=O)c3c(C)noc3C)cc2C(=O)N([C@H](C)CO)C[C@H]1C | x | x | x | x | -4.1 | i | 1 | -3 | 0.1
O=C(CCC1CCCCC1)Nc1cccc(C(=O)Nc2ccc(C(=O)O)cc2)c1 | -0.5 | x | x | x | 3.0 | i | -7 | 6 | -0.2
C[C@H]1CN([C@@H](C)CO)C(=O)CCCn2nncc2CO[C@@H]1CN(C)S(=O)(=O)c1cccc(F)c1 | 2.6 | x | x | x | 1.7&-0.1 | i | 6&0 | 18&5 | 5.8&-2.3
CSc1nsc(SCC(=O)Nc2ccc(C(N)=O)cc2)n1 | -0.7 | -8 | 0.62 | x | -2.3 | i | -4 | -6 | 0.0
Cc1ccccc1OCC(=O)NNC(=O)CCc1ccccc1 | 3.8 | 29 | 0.71 | -4% | -11 | i | -2 | 4 | -1.7
O=C(NCCN1CCCCC1)[C@@H]1[C@@H](CO)[C@@H]2Cn3c(cccc3=O)[C@@H]2N1Cc1ccccn1 | x | x | x | x | -0.6 | i | 0 | 8 | -1.4
Cc1ccc(N2C(=O)C(Cc3ccccc3)NC2=S)cc1 (stereo not drawn) | -1.6 | 26 | 0.69 | 0% | x | x | x | x | x
C[C@H]1CN([C@@H](C)CO)C(=O)CCCn2nncc2CO[C@@H]1CN(C)Cc1ccc(C(=O)Nc2ccccc2N)cc1 | x | x | x | x | 2.2 | i | 2 | 7 | 0.5
Cc1ccc(S(=O)(=O)CCC(=O)OCC(=O)N2CCc3ccccc32)cc1 | 6.8 | 1 | 0.69 | -1% | -6.7 | i | -16 | -15 | 2.8
CC(=O)c1nc(N2C(=O)CC(Cc3cccc(C)c3)C2=O)sc1C (stereo not drawn) | 1.6 | 6 | 0.7 | -7% | -0.7 | i | -2 | -3 | 0.6
O=C(O)c1cc(N/N=C/c2ccc(-c3ccccc3)cc2)ccc1Cl | 0.7 | 99* | x | 2% | 0.1 | i | -25 | -47 | -5.5
CCOc1ccc(-n2nnc3c(=O)n(CC(=O)N4CCCc5ccccc54)cnc32)cc1 | 2.0 | 20 | 0.76 | 6% | 0.9 | i | 4 | 16 | -8.6
COC(CNC(=O)c1ccc2c(=O)n(Cc3ccc4c(c3)OCO4)c(=S)[nH]c2c1)OC | 3.4 | -7 | 0.69 | -6% | -1.8 | i | 5 | -1 | -0.3
C[C@H]1CN(S(=O)C(C)(C)C)[C@H](CCO)/C1=C\CCO (stereo partly drawn) | -0.4 | x | 0.69 | -1% | -1.9 | i | 2 | 16 | 3.7
CC1(C(=O)Nc2ccc(Cl)c(Cl)c2)CCN1C(=O)C1CCCCC1 (stereo not drawn) | 2.9 | x | x | x | -3.7 | i | -16 | -65 | -1.6
Nc1nc(Nc2cccc(Cl)c2)nc(NCc2ccco2)c1[N+](=O)[O-] | 6.0 | 19 | 0.7 | 20% | 1.3 | i | -17 | -11 | 22
CCCCN(CCCC)C(=O)c1nsnc1-c1ccccc1O | 2.7 | -6 | 0.7 | 27% | x | x | x | x | x
C[C@@H]1CN([C@@H](C)CO)C(=O)c2cc(NC(=O)Cc3cn(C)c4ccccc34)ccc2O[C@H]1CN(C)S(=O)(=O)c1cccs1 | x | x | x | x | 0.2 | i | -4 | -2 | 3.2
Cc1ccccc1S(=O)(=O)N(C)C[C@@H]1OCc2cnnn2CCCC(=O)N([C@@H](C)CO)C[C@@H]1C | 0.3 | x | x | x | 0.7&0.9 | i | 8&1 | 10&2 | 0.4&0.2
CC=Cc1ccc2n(c1=O)C[C@H]1[C@H](CO)[C@@H](C(=O)NCCCN3CCOCC3)[C@@H]2N1Cc1cocn1 (mixture of isomers) | x | x | x | x | -2.5 | i | 2 | 11 | -0.8
COc1ccccc1C(=O)Nc1ccc2c(c1)OC[C@H](C)N(C(C)=O)C[C@H](C)[C@H](OC)CN(C)C2=O | x | x | x | x | -2.6 | i | -3 | -3 | 0.4
O=C(O)C[C@@H]1CC[C@@H](NC(=O)c2ccccc2F)[C@H](CO)O1 | x | x | x | x | -6.9 | i | 2 | 6 | -1.8
COC(=O)CSc1nc(NC#N)nc(NC(C)(C)C)n1 | 1.2 | 41 | 0.68 | 25% | 2.5 | i | 4 | 5 | -1.4
Cc1noc(C)c1NC(=O)Nc1ccc2c(c1)C(=O)N([C@H](C)CO)C[C@H](C)[C@@H](CN(C)C(=O)Nc1ccc(F)cc1)OCCCC[C@H](C)O2 | x | x | x | x | -0.2 | i | -1 | -5 | 2.4
O=C(c1c[nH]c(C(=O)N2CCN(c3ccccc3F)CC2)c1)c1cccc(Cl)c1Cl | 0.6 | x | 0.66 | 20% | 2.2 | i | -28* | -18* | -3.2*
CCOC(=O)N1CCN(C(=O)CN(c2cccc(C)c2)S(=O)(=O)c2ccccc2)CC1 | 4.0 | -1 | 0.71 | -5% | x | x | x | x | x
Cc1sc2ncn(CC(=O)OC(C)C(=O)NC(C)(C)C)c(=O)c2c1C (stereo not drawn) | 0.1 | -4 | 0.73 | 9% | x | x | x | x | x
COc1ccc(Cn2nnnc2C(c2ccccc2Cl)N2CCN(C)CC2)cc1 (stereo not drawn) | 1.3 | x | 0.72 | u | x | x | x | x | x
CC(C)[C@H](NC(=O)N1CC(=O)Nc2ccccc21)C(=O)N1CCC(C(=O)O)CC1 | 2.3 | -1 | 0.68 | 1% | -1.8 | i | 3 | 4 | 2.0
CCc1ccc(/C=N/NC(=O)c2nnn(-c3nonc3N)c2CN2CCOCC2)cc1 | 1.6 | x | x | x | 5.5 | i | 0 | 0 | -4.1
CCOC(=O)c1cc(CC)sc1NC(=O)COC(=O)c1cnccn1 | -0.1 | 1 | 0.66 | -7% | -0.8 | i | 1 | 1 | -0.4
CCOC(=O)Cc1c(C)nc2c(-c3cccc(Br)c3)c[nH]n2c1=O | -1.3 | 48 | 0.64 | 7% | x | x | x | x | x
Cc1ccc(NC(=O)CSc2nnc(-c3ccncc3)o2)cc1 | -1.5 | 15 | 0.69 | 21% | x | x | x | x | x
O=C(CN1CCCC1)Nc1ccc(S(=O)(=O)N2CCCCC2)cc1 | -2.5 | x | x | x | -4.5 | i | 11 | 5 | -1.6
O=C(C1=C[C@@H](c2ccc(C(F)(F)F)cc2)C[C@@H](OCCCCO)O1)N1CCOCC1 | 3.2 | x | x | -1% | -1.3&-3.1 | i | 1 | 10 | 7.3
CC(CNC(=O)c1ccco1)NC(=O)c1ccco1 (stereo not drawn) | 7.0 | 2 | 0.66 | -5% | -15 | i | 9 | 8 | -2.1
C=CC[C@@H](CC(=O)NCCO)C(=O)N[C@H](C)COC(=O)[C@@H](CC=C)Cc1ccc(F)cc1 | -6.3 | -2 | x | x | -1.9 | i | 7 | 11 | 29
O=C(c1cccc(F)c1)N1C[C@H]2[C@@H](c3ccccc31)[C@H](CO)N2C(=O)Cc1ccccc1 | x | x | x | x | 0.8 | i | -1 | 6 | 0.3
O=C(O)COc1ccc2occ(C(=O)c3ccccc3)c2c1 | -3.0 | -1 | 0.7 | 4% | -2.0 | x | x | x | x
COc1ccc(C(O)CNc2ccc(C)cc2)cc1 (stereo not drawn) | 11 | 57 | 0.73 | 11% | x | x | x | x | x
Cc1ccc(-c2c3c(=O)n(C)c(=O)n(C)c3cn2-c2ccccc2O)cc1 | -2.7 | -6 | 0.68 | u | x | x | x | x | x
O=C(Nc1ccc(N2CCOCC2)cc1)c1ccc(S(=O)(=O)NCc2ccco2)cc1 | 6.1 | -5 | 0.74 | x | 2.0 | i | 12 | 4 | 1.6
CCCC(=O)Nc1ccc2c(c1)C(=O)N(C)C[C@@H](OC)[C@H](C)CN(Cc1ccccn1)[C@@H](C)CO2 | x | x | x | x | -0.2 | i | 0 | -8 | -0.2
O=C(c1ccc(Br)s1)N1CCN(Cc2ccc3c(c2)OCO3)CC1 | -2.4 | 2 | 0.65 | 3% | x | x | x | x | x
COc1ccccc1CN(Cc1cccnc1)S(=O)(=O)c1ccc(-n2cnnn2)c(OC)c1 | 2.7 | -4 | 0.7 | x | 3.2 | i | -16 | -29 | 0.7
CN(C)CC(C)(C)CNS(=O)(=O)c1ccc(Cl)cc1 | -0.3 | -4 | 0.7 | -12% | 1.5 | i | 7 | -5 | -2.5
O=C(c1ccccc1)N(Cc1ccccc1)c1ccccn1 | -5.1 | -24 | 0.72 | 0% | x | x | x | x | x
CN1CCN(Cc2ccc(-c3ccc(Cl)cc3)o2)CC1 | 2.9 | 2 | 0.71 | -3% | 20 | i | 2 | -3 | -2.4
COc1ccc(S(=O)(=O)N2CCOC2CNC(=O)C(=O)NCc2ccc3c(c2)OCO3)cc1 (stereo not drawn) | 1.0 | x | 0.74 | -3% | 0.0 | i | 4 | 2 | 0.4
Cc1ccc(-n2nc(C)cc2Nc2ncc(Cl)cc2Cl)cc1 | 0.4 | 2 | 0.69 | 5% | x | x | x | x | x
O=C(C1CC(c2ccc(F)cc2)=NO1)N1CCCCC1 (stereo not drawn) | 1.8 | -2 | 0.71 | 21% | 1.7 | i | 6 | 6 | -4.6
Cc1ccc(-c2ccc(CN3C(C)C(=O)N(Cc4cn(CC5CCCCC5)nn4)CCS3(=O)=O)cc2)cc1 (stereo not drawn) | -4.0 | x | x | 7% | -0.3 | i | x | x | x

High-throughput results: PubChem BioAssay, several laboratories

Not all compounds are listed, so the mix of outcomes need not match the whole.
